# HPGD inh: inhibitors of human 15-hydroxyprostaglandin dehydrogenase (HPGD); Potency, µM, without a hit: at the highest dose activity change, negative = inhibition, actives largely listed as inhibitors; purified HPGD, NADH fluorescence kinetic, PGE2 substrate; hit rate 4.3% among 150,000; AID 894; P15428; active = well fitted inhibition curve with a large enough effect (not every such curve was filed as active); inconclusive = small, poorly fitted or top-dose-only effect, or another doubt; inactive = no such curve, though single readings can be large or run the other way;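 further: top concentration of the series not given in the record; plate controls included wells without enzyme; inactives centre near -10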
# Target sequence (P15428 whole entry, looked up): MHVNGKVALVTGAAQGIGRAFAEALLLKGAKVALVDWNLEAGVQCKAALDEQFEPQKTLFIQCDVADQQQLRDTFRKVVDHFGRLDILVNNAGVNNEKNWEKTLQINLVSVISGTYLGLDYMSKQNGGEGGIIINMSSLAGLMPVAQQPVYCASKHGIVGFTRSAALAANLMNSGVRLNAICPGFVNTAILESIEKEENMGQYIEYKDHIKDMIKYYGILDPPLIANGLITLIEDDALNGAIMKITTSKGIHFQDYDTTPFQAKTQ
#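 20 nM HPGD preincubated 15 min at room temperature with compound in 50 mM Tris-HCl pH 8, 0.01% Tween 20. Started with 1 mM NAD+ and 30 uM prostaglandin E2; NADH fluorescence (360/450 nm) read 5 times over 30-s intervals, last minus first.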
# Numbers without * were called inactive; u = inconclusive. On the % scale 0 is the no-effect control and ±100 the full control effect; potency means the concentration at half of the fitted maximal effect. Some of the compounds tested; the hit share may differ from the screen's.
SMILES,HPGD inh
COC(=O)c1ccc(C23CC4(C2)[C@H](CN(C)[C@@H]4c2ccccc2)C3c2ccc(Cl)nc2)cc1 (stereo partly specified),-20.5%
CC(C)Nc1nc(NC(C)(C)C)nc(Oc2ccc(=O)n(-c3ccccc3)n2)n1,-4.0%
Cc1ccc2c(c1)N(CCC(=O)NC1CC1)C(=O)C(C)O2 (stereo unspecified),-20.6%
CC(C)(C)c1ccc2c(c1)N(CC(=O)O)C(=O)CO2,-4.1%
O=C(NCc1ccc(OC(F)(F)F)cc1)C1CC(c2ccccc2[N+](=O)[O-])=NO1 (stereo unspecified),-15.0%
CN1CC(c2ccccc2Cl)C2(COc3ccccc3C2=O)C12C(=O)Nc1ccccc12 (stereo unspecified),u
Cc1ccc(OCC(=O)N(C)CC(=O)Nc2ccc(F)cc2)c([N+](=O)[O-])n1,-6.6%
COc1ccc(C(=O)Nc2nc3ccccc3[nH]2)cc1S(=O)(=O)N1CCCC1,-11.3%
CCCCC(c1nnnn1Cc1ccco1)N1CCN(c2nc3ccccc3s2)CC1 (stereo unspecified),-5.4%
CN1C(=O)N(S(=O)(=O)c2ccc(F)c(F)c2F)C(=O)C1(C)C,-9.6%
CC(=O)Nc1ccc(S(=O)(=O)Nc2nc(-c3ccc(C(C)(C)C)cc3)cs2)cc1,-7.2%
CCC(Sc1nc(N)c(NC(=O)c2ccc(OC)c(OC)c2)c(=O)[nH]1)C(=O)OC (stereo unspecified),-18.5%
CSc1nsc(SCCN2C(=O)c3ccccc3C2=O)n1,-13.3%
O=C(CCCCC(=O)NC1CCCC1)NC1CCCC1,-2.8%
O=C(Nc1ccc(Cl)cc1)N1CCN(c2ccccc2)CC1,4.7%
O=C(OCc1ccccc1)Oc1cncc(C(=O)O)c1,-11.3%
Nc1nonc1/C(=N/O)N1CCN(CCO)CC1,-2.9%
COc1cc(C2N(c3ccccc3)CCN2c2ccccc2)cc(OC)c1OC,-20.6%
CCn1cc(CNC(=O)CCSc2nc(-c3ccco3)cc(C(F)(F)F)n2)cn1,-9.9%
CC1(NC(=O)CC[N+](C)(C)CCO)CS(=O)(=O)CC1S(=O)(=O)[O-] (stereo unspecified),-3.8%
C=CCNC(=O)C1CCN(c2c([N+](=O)[O-])cc(C(F)(F)F)cc2[N+](=O)[O-])CC1,-9.6%
Cc1ccc(S(=O)(=O)/N=C2/NC(=O)/C(=C/c3cccnc3)S2)cc1,20µM*
COc1ccc(C(CNC(=O)c2cccc(Br)c2)N2CCCC2)cc1 (stereo unspecified),-9.5%
Cc1cc(C(=O)CSc2nnc(-c3ccc(Cl)cc3)n2CC2CCCO2)c(C)n1C (stereo unspecified),-15.9%

# Sorted by molecular weight (low to high): part of the list above.
SMILES,HPGD inh
Nc1nonc1/C(=N/O)N1CCN(CCO)CC1,-2.9%
Cc1ccc(S(=O)(=O)/N=C2/NC(=O)/C(=C/c3cccnc3)S2)cc1,20µM*
CC1(NC(=O)CC[N+](C)(C)CCO)CS(=O)(=O)CC1S(=O)(=O)[O-] (stereo unspecified),-3.8%

# Further structures.
SMILES,HPGD inh
Cc1ccc(C(C)C)c(OCC(=O)NN=C2CCCCCCC2)c1,-8.9%
CC(=O)N/C(=C/c1ccc2c(c1)OCO2)C(=O)NCCCO,-9.0%
CCc1nc(N)c(C#N)c(-c2cccnc2)c1C,-17.7%
Cc1ccccc1NC(=O)Cn1nnc2c(cnn2-c2ccc(F)cc2)c1=O,-13.4%
O=C1C=C(O)CC(c2ccc(Cl)cc2)C1 (stereo unspecified),-1.2%
CCC1Oc2ccc(C)cc2N(CC(=O)N2CCN(c3ccc(F)cc3)CC2)C1=O (stereo unspecified),-2.8%
CCOc1ncnc2c1oc1nc(CC(C)C)c3c(c12)CC(C)(C)OC3,-10.9%
O=C1c2ccccc2-c2cccc(C(=O)N3CCCCCC3)c21,-27.5%
O=C(NCc1ccccn1)c1c(Cl)cccc1Cl,-25.5%
Cc1ccc2nc(C)c(C(=O)N/N=C/c3ccco3)cc2c1,-5.0%
CCOc1ccc(C2N(c3cc(C)on3)C(=O)C3CCCN32)cc1OC (stereo unspecified),-1.1%
CCNC(=O)N1C(=O)C2(OCCO2)c2ccccc21,-7.4%

# HPGD inh: entries above that show a hit
SMILES,HPGD inh
Cc1ccc(S(=O)(=O)/N=C2/NC(=O)/C(=C/c3cccnc3)S2)cc1,20µM*

# 4 entries picked at random from those above:
SMILES,HPGD inh
Cc1ccc(C(C)C)c(OCC(=O)NN=C2CCCCCCC2)c1,-8.9%
CCNC(=O)N1C(=O)C2(OCCO2)c2ccccc21,-7.4%
O=C1C=C(O)CC(c2ccc(Cl)cc2)C1 (stereo unspecified),-1.2%
Cc1ccccc1NC(=O)Cn1nnc2c(cnn2-c2ccc(F)cc2)c1=O,-13.4%

# Continued:
SMILES,HPGD inh
COc1ccccc1CNCc1cc(OC)c(OC)cc1OC,10.5%
N=c1c2c3c(sc2ncn1N)CCCCC3,-10.1%
COc1ccc2c(c1)C1NC(=S)N[C@@](C)(O2)C1C(=O)Nc1ccccc1 (stereo partly specified),2.8%
COc1ccc(NC(=O)c2ccco2)cc1NC(=O)c1cccs1,-5.4%
CCN(CC)CCNS(=O)(=O)c1ccc(Cl)cc1,-7.1%
CC(=O)Nc1ccc(S(=O)(=O)N2CCN(C(=O)N3CCOCC3)CC2)cc1,-10.3%
CC(C)CNC(=S)NC(=O)c1ccc([N+](=O)[O-])cc1,-0.4%
CC(NC(=O)c1ccc(C(C)(C)C)cc1)C(=O)O (stereo unspecified),-7.7%
COc1ccc(NC(=O)c2sc(SCc3ccccc3)nc2N)cc1,u
CN(C)/C=C1\N=C(c2ccc3c(c2)OCO3)OC1=O,-14.2%
Cc1ccc(NC(=O)CC2SC(=NC3CCCCC3)NC2=O)cc1 (stereo unspecified),-1.5%
O=c1[nH][nH]c(C(F)(F)F)c1C=Nc1ccc(Cl)cc1,-10.0%
Cc1ccc2oc(=O)c3c4cc(O)c(O)c(C)c4oc3c2c1,-12.4%
O=C1c2ccccc2C(=O)N1CCc1nc(-c2ccccn2)no1,-7.3%
Cc1ccc(C2/C(=C(\O)c3ccc4c(c3)OCCO4)C(=O)C(=O)N2CCCN(C)C)o1 (stereo unspecified),-2.0%
O=C(O)CCCCCN=C1CCc2ccccc2N1,-2.7%
N#Cc1cccc(NC(=O)N2CC[C@@]3(CCCNC3)C2)c1,-6.4%
C=CCn1c2ccccc2c2nnc(SCC(=O)NC(C(=O)OC)C(C)C)nc21 (stereo unspecified),20µM*
O=C1NC(Nc2nc3ccccc3s2)(C(F)(F)F)C(=O)N1C1CCCCC1 (stereo unspecified),-11.1%
Cc1ccc(CNC(=O)c2ccc(Cn3nc(C)c(Cl)c3C)o2)cc1,-9.7%
O=S(=O)(CCc1nc2ccccc2o1)c1ccc(Cl)c(Cl)c1,-0.5%
Cc1ccccc1-c1noc(-c2ccc(Cl)cc2)n1,-7.0%
CCOC(=O)C1CCN(CC(=O)Nc2c(C(=O)OC)[nH]c3cccc(C)c23)CC1,u
CC(=O)c1sc(NC(=O)c2ccc(Cn3cc(Br)cn3)o2)nc1C,-9.4%
CC(C)N1CCC(=NNC(=O)c2ccc(Br)o2)CC1,-14.1%
CC(=O)c1c(N(C)C)ccnc1C(F)(F)F,-12.3%
N#Cc1c(NC(=O)Cn2cnc3ccccc3c2=O)oc(-c2ccccc2)c1-c1ccccc1,u
CCOc1ccc(/C(O)=C2/C(=O)C(=O)N(CCOCCO)C2c2ccc(F)cc2)cc1 (stereo unspecified),-11.6%
Cc1nn(C(C)(C)C)c(N)c1-c1ccccc1,28.2µM*
CCn1c(Cc2ccc(OC)cc2)nnc1SCC(=O)NC1CCCCC1,-11.8%
CC(C)(CO)N=C1NS(=O)(=O)c2cc([N+](=O)[O-])ccc21,-2.5%
O=C(CSc1nc2ncccc2[nH]1)NCc1ccccc1,-18.1%
COC(=O)C1=C(C(=O)OC)SC2(S1)C(C(=O)OC)=C(C(=O)OC)SC1=C2c2cc(C)ccc2NC1(C)C,10µM*
Cc1ccccc1NC(=S)NNC(=O)c1ccoc1C,-2.1%
Cc1ccc(-n2nc(C)c3c(=O)[nH]c(C(F)(F)F)nc32)cc1,-10.4%
S=c1[nH]nc(COc2ccccc2)n1/N=C/c1ccccn1,u
O=C(N/N=C/c1cccc(Oc2ccccc2)c1)c1ccccc1Br,-9.6%
COc1ccc(/C=C2\SC(=O)N(CCNC(=O)C3CC(=O)N(c4ccccc4)C3)C2=O)cc1 (stereo unspecified),-16.2%
O=C1c2ccccc2S(=O)(=O)N1CC(O)COc1ccc(Br)cc1 (stereo unspecified),u
CC1C/C(=N\NC(=O)CCc2ccc(S(=O)(=O)N3CCOCC3)cc2)CC(C)(C)C1 (stereo unspecified),-5.7%
Cc1cc(C)n(/N=C/c2cccs2)c(=O)c1C#N,-3.5%
CC(=O)c1c(C(C)=O)c(C)n(C2CCCCC2)c1C,1.5%
Cc1nc(SCn2nnc3ccccc3c2=O)nc(C)c1C,14.1µM*
COc1ccccc1NC(=O)Cn1c(=O)n2nc(C)nc2c2ccccc21,-15.6%
Cc1csc(=Nc2ccccc2)n1CCO,-9.0%
COCCNC(=O)C1(CC(C)C)C=CCN1C(C)=O (stereo unspecified),-8.4%
Cc1cc(NC(=O)CSc2ccc3nnc(-c4ccccn4)n3n2)no1,u
COC(=O)CNC(=O)[C@@]1(Cc2ccccc2)C=C[C@@H](C)N1C(=O)c1ccccc1,-8.4%
COC(=O)[C@@H](NC(=O)Nc1cccc(Br)c1)C(C)C,-4.5%
COc1ccc(OC)c(NC(=O)CSc2ncnc3c2cnn3-c2ccccc2Cl)c1,-20.9%
O=C(c1ccc2c(c1)OCCO2)C1CCN(S(=O)(=O)c2cccc(F)c2)CC1,-17.1%
O=S(=O)(c1cccc2c(S(=O)(=O)N3CCCC3)cccc12)N1CCCC1,0.4%
Cc1c(C)[n+](=O)c(-c2ccco2)c(C)n1[O-],-14.9%
CC(=O)C(=Nc1ccc(Cl)cc1Cl)NNc1cccc(Cl)c1,-7.1%
CC(=O)N1CCC[C@@]2(CCN(c3ccncc3)C2)C1,-1.3%
C=CCOC(=O)C1=C(C)Nc2nnnn2C1c1cccc(OC)c1OC (stereo unspecified),1.7%
CCOC(=O)C1(C)NC(c2ccc(OC)cc2OC)C2C(=O)N(c3cccc(OC)c3)C(=O)C21 (stereo unspecified),-1.1%
COC(=O)c1c(NC(=O)c2ccc(N(C)S(=O)(=O)c3ccc(C)cc3)cc2)sc2c1CCCC2,u
COc1c(C)cc(Br)cc1C(=O)Nc1cccc(NC(=O)c2ccco2)c1,-5.9%
CC(NC(=O)Nc1ncccn1)(C(F)(F)F)C(F)(F)F,-7.5%

# The results go on.
SMILES,HPGD inh
Cc1ccc(C(=O)N/N=C\c2cccn2C)cn1,14.1µM*
CCCn1c(SCC(=O)N2CC(=O)Nc3ccccc32)nc2ccccc21,-16.9%
CC1CCCN(S(=O)(=O)c2coc(C(N)=O)c2)C1 (stereo unspecified),-9.5%
N#C/C(=C\c1ccc(OC(=O)c2ccc(Br)s2)cc1)c1nc2ccccc2[nH]1,-13.7%
CCNc1nnc(-c2ccncc2)s1,u
CCc1ccc(-c2nn(-c3cc(Cl)ccc3[N+](=O)[O-])c(=O)c3ccccc23)cc1,-11.1%
CCC(/C=N/Nc1ccc(S(=O)(=O)N2CCCC2)cc1[N+](=O)[O-])CC,-1.5%
COc1ccc(OC)c(NC(=S)NCc2cccnc2)c1,-13.3%
O=S(=O)(/N=C(/c1ccccc1)N1CCCCC1)c1ccccc1,-10.7%
CC1(C)CC23C(=O)CCC(O)C2(C)CCC13 (stereo unspecified),-4.0%
Cc1cccc(NC(=S)N/N=C2\CC(C)(C)Oc3ccc(O)cc32)c1,-21.6%
O=C(COC(=O)C1CC2C=CC1C2)Nc1cccc(S(=O)(=O)N2CCCCCC2)c1 (stereo unspecified),-0.8%
O=C(Cc1ccc([N+](=O)[O-])cc1)NCc1ccc2c(c1)OCO2,0.8%
CC(NC(=O)c1cccs1)C(c1cccs1)N1CCN(c2ccccc2)CC1 (stereo unspecified),-15.4%
Cc1cnc(NC(=O)c2cc3c(s2)CCCC3)s1,u
C=C(C)Cn1c(-c2ccc(OC)cc2)nc2ccccc21,u
O=C(CCCN1C(=O)c2ccccc2C1=O)N1CCCCC1,-23.7%
Cc1cc(C)c2c(c1)cc(C)c1nnc(SCC(=O)Nc3ccccc3N3CCOCC3)n12,-6.9%
O=C(O)CC(Cn1[nH]nnc1=S)c1ccccc1 (stereo unspecified),-26.6%
C[C@@H](O)C1NC(=O)[C@H](CCCCN)NC(=O)c2cc([N+](=O)[O-])cc(F)c2NCCCC[C@@H](C(N)=O)NC1=O (stereo partly specified),-2.2%
Cn1cc(SCC(=O)O)c2ccccc21,-14.6%
O=C(CNC(=O)c1ccc(Cl)cc1Cl)OCc1nc2ccccc2s1,-13.2%
COc1ccc(CC(=O)Nc2ccc(-c3noc(-c4ccc(Cl)cc4)n3)cc2)cc1,-3.1%
O=C(CCN1C(=O)c2ccccc2C1=O)C1=NN[C@@H]2C(=O)N(c3cccc(Cl)c3)C(=O)[C@H]12,-2.0%

# As entered above.
# Cc1ccccc1NC(=O)Cn1nnc2c(cnn2-c2ccc(F)cc2)c1=O in HPGD inh = -13.4%
# O=C(Nc1ccc(Cl)cc1)N1CCN(c2ccccc2)CC1 in HPGD inh = 4.7%

# Next structures follow.
SMILES,HPGD inh
Cn1c(NC(=O)C2CCCC2)cc(=O)n(C)c1=O,-9.2%
CCOC(=O)c1sc(/N=C/N(C)C)c(C(=O)OCC)c1C,-12.3%
CN(C)CC[C@H](c1ccc(Br)cc1)c1ccccn1,-2.0%
O=c1ccc(=O)n2n1CC(O)C2,-5.8%
COCCn1c(C)cc(C(=O)COC(=O)c2ccc3c(c2)NC(=O)CS3)c1C,-24.4%
Nc1cnn(C2CCCO2)c(=O)n1 (stereo unspecified),-19.1%
Cc1cccc(C(=O)OCC(=O)Nc2ccc(N3CCCCC3)cc2)c1O,-15.8%
Cn1c(SCC(=O)N2CCN(c3ccccc3)CC2)nnc1-c1c[nH]c2ccccc12,-6.5%
